FGF22 binding = binders of recombinant human FGF22 by thermal shift; AID 651658; Q9HCT0; calls only at 9.99 µM; actives 1.5% (n = 340,000); SYPRO orange fluorescence; percent of sucrose octasulfate shift, DMSO zero;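 active = melting point raised past a set limit in the mean and every replicate; inconclusive = no clear call; three in four hits are not shown here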
Target sequence (Q9HCT0 whole entry, looked up): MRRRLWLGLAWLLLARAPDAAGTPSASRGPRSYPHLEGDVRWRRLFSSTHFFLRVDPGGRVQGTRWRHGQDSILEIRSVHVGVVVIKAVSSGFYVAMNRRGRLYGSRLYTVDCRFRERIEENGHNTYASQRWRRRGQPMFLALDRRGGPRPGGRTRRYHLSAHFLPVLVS
Ecoli rRNA inh = inhibitors of bacterial rRNA selective over humanized ribosomes; E. coli WT GFP vs humanized-ribosome RFP mutants, fluorescence, 24 h; stronger effect = lower value; DMSO median 0, no signal -100; GFP signal change (wild-type ribosome), % (test concentration not listed); AID 720706; actives 1.6% (n = 350,000);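 active = significant combined selectivity score with lowered wild-type GFP, culture density cut under 30%, mutant RFP and density less affected; inactive = any of these conditions unmet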; also: one replicate is shown; some compounds called inactive have numbers as strong as hits
T cruzi inh = blocks replication of Trypanosoma cruzi | T. cruzi beta-gal in NIH3T3, luminescence, 90 h | inhibition, % (no concentration beside the values) | actives 1.4% (n = 300,000) | AID 1885;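 active = mean inhibition across valid replicates above about 55%, limit read from the data; inconclusive = mean below that limit but half or more replicates reach it; inactive = mean below it, under half of replicates reach it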;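 also: signal also drops with host cell toxicity which is not excluded here; 0% = plate median of DMSO wells and 100% = zero luminescence signal; higher percent means less beta-gal luminescence so fewer parasites; stock transfer was 50 nL into about 50 µL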
MLL AF4-AF9 inh = inhibitors of human MLL-AF4/AF9 interaction | AlphaScreen, biotin-AF4 peptide binding to FLAG-AF9 | inhibition, % at 10 µM | P42568 | actives 0.47% (n = 350,000);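 active = every replicate reaching a set inhibition limit, whatever the replicate mean, cut at about 25% in these data; inconclusive = mean inhibition reaches that limit but some replicates miss it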;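 also: 0% = plate neutral control median and 100% = total signal loss; the record names both 10 and 1 µM as test concentration; the first replicate is given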
Beta cell apopt = blocks beta cell apoptosis | INS-1E cytokine-induced death, ATP luminescence, 48 h; percent of positive-control rescue, neutral wells zero | protection from apoptosis, % (test concentration not listed) | actives 0.8% (n = 300,000);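 active = all replicates at 75% or more, or half of them and the mean; inconclusive = half reach 75% but not the mean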;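 also: 0% = cytokine-treated negative control wells and 100% = positive control rescue; higher means more ATP so stronger rescue from cytokine killing; wells of about 40 µL received 100 nL stock; the first replicate is given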
RanGTP-Impb inh = disruptors of Ran-importin-beta complex formation – biochemical, FRET, CFP-Ran, YFP-importin-beta, homogeneous, primary screen | cell-free CFP-Ran/YFP-importin-beta FRET ratio | inhibition, % (concentration not given with the values) | actives 1.1% (n = 300,000) | AID 2216;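 active = most replicates above 15%; inconclusive = exactly half above 15%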;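 also: 0% = DMSO wells and 100% = Ran loaded with GDP instead of GTP; wells of about 40 µL received 100 nL stock; the first replicate is given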
Calb FLC = C. albicans growth modulation with fluconazole; C. albicans CaCi-2 (fluconazole-resistant clinical isolate) + fluconazole, Alamar Blue growth, 48 h; actives 0.57% (n = 300,000); growth inhibition, % (concentration not given with the values); AID 1979;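 active = most replicates above 75%; inconclusive = exactly half above 75%; inactive = most below 75%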;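 also: all wells also contain fluconazole at 8 µg/ml as a sub-toxic cotreatment; 0% = median of DMSO wells and 100% = median of geldanamycin control wells; wells of about 8 µL received 7.5 nL stock; the first replicate is given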
ALR H2O2 inh = blocks human ALR sulfhydryl oxidase activity | inhibition, % (concentration not given with the values) | P55789 | purified ALR, DTT oxidation, H2O2 HRP-luminol luminescence | actives 3.8% (n = 290,000);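 active = mean and each replicate at 75% or more; inconclusive = only one of the two met; inactive = neither met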;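 also: stock transfer was 7.5 nL into about 7.5 µL; 0% = neutral wells and 100% = wells with inactivated enzyme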
Target sequence (P55789 whole entry, looked up): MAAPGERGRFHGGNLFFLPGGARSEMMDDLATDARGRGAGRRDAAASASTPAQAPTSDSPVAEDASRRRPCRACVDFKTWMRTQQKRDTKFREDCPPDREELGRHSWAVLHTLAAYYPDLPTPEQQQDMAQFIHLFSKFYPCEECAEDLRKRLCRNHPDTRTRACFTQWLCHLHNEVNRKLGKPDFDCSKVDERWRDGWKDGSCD
Ecoli rRNA inh OD600 = also measured in Ecoli rRNA inh; calls as there; OD600 change, %; measured here: OD600 growth;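 optical density of the mix in the first replicate; 0 = DMSO median and -100 = no signal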
Ecoli rRNA inh RFP = also measured in Ecoli rRNA inh; calls as there; RFP signal change, %; measured here: RFP humanized mutant strains;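 first replicate; 0 = DMSO median and -100 = no signal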
Active calls of the source: *; i = inactive; ? = inconclusive; nt = not tested or not shown. Only part of the results is shown; rates above refer to the full screens.

SMILES | FGF22 binding | Ecoli rRNA inh | Ecoli rRNA inh OD600 | Ecoli rRNA inh RFP | T cruzi inh | MLL AF4-AF9 inh | Beta cell apopt | RanGTP-Impb inh | Calb FLC | ALR H2O2 inh
O=C(O)C1=CC[C@@H](c2ccc(Cl)cc2)N(S(=O)(=O)c2ccc(Cl)cc2)[C@H]1c1ccc(F)cc1 | i | -43 | -62 | -3.0 | nt | -1.8 | 0 | nt | nt | 2
O=C(c1cc2nc(-c3ccc(Cl)cc3)cc(C(F)(F)F)n2n1)N1CCOCC1 | i | 16 | 26 | 1.7 | 11 | -2.9 | -6 | 6.4 | 11 | -6
CCOC(=O)c1cc2c(=O)n3ccccc3nc2n(C(C)C)c1=NC(=O)c1c(-c2ccccc2Cl)noc1C | i | 1 | 11 | -0.5 | 63* | -2.1 | -7 | 0.8 | -6 | -20
Cc1n[nH]c(=O)c2c(NC(=O)CSc3c(Cl)cccc3Cl)oc(C)c12 | i | -2 | -2 | -1.3 | 0 | -2.0 | -2 | 1.9 | 2 | -17
CN(C)c1ccc(S(=O)(=O)N2CCC(Cc3ccccc3)CC2)cn1 | i | 4 | 7 | -1.4 | nt | -0.7 | 5 | nt | nt | 7
O=C(Nc1ccc2c(c1)OCCO2)c1cccc(Cl)c1Cl | i | -18 | -26 | -2.8 | -12 | -3.0 | -1 | 3.9 | -7 | -2
O=C(CSc1nc2ncc(Cl)cc2[nH]1)c1c[nH]c2ccccc12 | i | -4 | 12 | -0.8 | 4 | 0.6 | 8 | -4.8 | 4 | -5
CCCC(C(=O)n1nc(C)cc1C)C(NS(=O)(=O)c1ccc(C)cc1)c1ccccc1 (stereo not drawn) | nt | nt | nt | nt | 32 | nt | 12 | ? | -3 | -16
COC(=O)c1ccccc1NC(=O)c1cnc2sccn2c1=O | nt | nt | nt | nt | -6 | nt | 0 | 1.7 | 8 | 1
O=C(NCc1ccc2c(c1)OCO2)c1ccc2c(c1)OCCO2 | nt | nt | nt | nt | -28 | 1.9 | 0 | 0.9 | -13 | 1
CC[n+]1c(C)cc(C)n1-c1ccccc1 | i | 9 | 15 | 0.8 | -6 | -0.4 | -1 | -1.8 | -18 | 2
O=S(=O)(c1ccc2ccccc2c1)N1CCN(S(=O)(=O)N2CCOCC2)CC1 | nt | nt | nt | nt | -1 | nt | 7 | 4.4 | 19 | -3
CN(Cc1ccccc1)C(=C(Cl)Cl)C(=C1NCCN1)[N+](=O)[O-] | nt | nt | nt | nt | -21 | nt | -1 | 4.9 | 3 | -3
O=c1cc(CN2CCN(c3cccc(Cl)c3)CC2)c2cc(O)c(-c3ccccc3)cc2o1 | nt | nt | nt | nt | 1 | 5.8 | 6 | 2.2 | -6 | -14
Cc1ccc(C)c(OCc2n[nH]c(=S)o2)c1 | i | 3 | -6 | 2.1 | -14 | -6.4 | 2 | 1.6 | 7 | -5
O=C(Nc1ccccc1OC(F)F)c1ccc(Br)o1 | nt | nt | nt | nt | 1 | nt | -6 | 4.6 | 2 | -1
COc1ccc(NC(=O)Cn2nnc(C(=O)NCc3cccs3)c2N)cc1OC | i | 4 | 6 | -5.9 | 0 | -0.9 | nt | 2.4 | -6 | -12
Cn1cccc1/C=N/NC(=O)C(O)c1ccccc1 (stereo not drawn) | i | 22 | 9 | 0.4 | 3 | nt | -3 | -3.4 | -3 | 1
CCC(CC)C(=O)Nc1nnc(S(=O)(=O)N2CCCc3ccccc32)s1 | i | 8 | -2 | -0.6 | -1 | 0.1 | 7 | 3.5 | -1 | nt
O=C(NCc1cccc(Cl)c1)c1ccncc1 | i | 6 | 9 | 0.2 | -11 | -4.0 | 8 | 1.0 | 5 | -8
Cn1c(=O)n(Cc2ccco2)c(=N)c2c3c(sc21)CCCC3 | nt | 12 | 6 | 2.1 | 12 | 0.0 | 21 | ? | 38 | 3
CCc1cc2c(=O)c(-c3ccc4c(c3)OCCO4)c(C)oc2cc1OS(C)(=O)=O | nt | nt | nt | nt | -10 | nt | -12 | 1.5 | 4 | 0
COc1ccc(N(Cc2cc3ccccc3[nH]c2=O)S(=O)(=O)c2ccccc2)cc1 | i | -5 | -2 | -1.7 | 9 | -21 | -1 | 2.4 | 11 | -5
N#CC1=C(N)SC(N)=C(C#N)C1c1ccnc2ccccc12 | nt | nt | nt | nt | -7 | nt | -2 | 23* | 0 | -25
Cc1cc(OCC(=O)Nn2cnnc2)ccc1Br | i | 14 | 15 | -6.1 | -15 | 5.1 | -6 | 2.7 | -10 | 47
CC(C)(C)CN1C(N)=NC[C@@H]1c1ccccc1 | nt | nt | nt | nt | -2 | nt | -7 | 1.6 | -4 | 6
COc1cccc(NC(=O)c2ccc3c(c2)OCO3)c1 | i | -1 | 6 | -4.3 | -16 | 3.7 | 2 | -1.7 | 1 | -12
CC(C)Cn1c(N)c(C(=O)COC(=O)C2CCCCC2)c(=O)n(C)c1=O | nt | nt | nt | nt | -21 | nt | -2 | 1.4 | -4 | nt
O=C(CCNC(=O)c1ccc(Br)cc1)Nc1ncccc1O | i | 1 | -2 | 2.8 | -13 | 2.3 | -3 | ? | -3 | 10
O=C(O)CNS(=O)(=O)c1ccc2c(c1)Cc1cc(S(=O)(=O)NCC(=O)O)ccc1-2 | i | 23 | 11 | 4.3 | 1 | -14 | -3 | 1.2 | -2 | -2

Ordered by formula weight (descending): part of the list above.
SMILES | FGF22 binding | Ecoli rRNA inh | Ecoli rRNA inh OD600 | Ecoli rRNA inh RFP | T cruzi inh | MLL AF4-AF9 inh | Beta cell apopt | RanGTP-Impb inh | Calb FLC | ALR H2O2 inh
O=c1cc(CN2CCN(c3cccc(Cl)c3)CC2)c2cc(O)c(-c3ccccc3)cc2o1 | nt | nt | nt | nt | 1 | 5.8 | 6 | 2.2 | -6 | -14
O=C(O)CNS(=O)(=O)c1ccc2c(c1)Cc1cc(S(=O)(=O)NCC(=O)O)ccc1-2 | i | 23 | 11 | 4.3 | 1 | -14 | -3 | 1.2 | -2 | -2
CCc1cc2c(=O)c(-c3ccc4c(c3)OCCO4)c(C)oc2cc1OS(C)(=O)=O | nt | nt | nt | nt | -10 | nt | -12 | 1.5 | 4 | 0
CCC(CC)C(=O)Nc1nnc(S(=O)(=O)N2CCCc3ccccc32)s1 | i | 8 | -2 | -0.6 | -1 | 0.1 | 7 | 3.5 | -1 | nt
CC(C)Cn1c(N)c(C(=O)COC(=O)C2CCCCC2)c(=O)n(C)c1=O | nt | nt | nt | nt | -21 | nt | -2 | 1.4 | -4 | nt
O=C(CCNC(=O)c1ccc(Br)cc1)Nc1ncccc1O | i | 1 | -2 | 2.8 | -13 | 2.3 | -3 | ? | -3 | 10
O=C(Nc1ccccc1OC(F)F)c1ccc(Br)o1 | nt | nt | nt | nt | 1 | nt | -6 | 4.6 | 2 | -1
Cn1c(=O)n(Cc2ccco2)c(=N)c2c3c(sc21)CCCC3 | nt | 12 | 6 | 2.1 | 12 | 0.0 | 21 | ? | 38 | 3
Cc1cc(OCC(=O)Nn2cnnc2)ccc1Br | i | 14 | 15 | -6.1 | -15 | 5.1 | -6 | 2.7 | -10 | 47
N#CC1=C(N)SC(N)=C(C#N)C1c1ccnc2ccccc12 | nt | nt | nt | nt | -7 | nt | -2 | 23* | 0 | -25
COc1cccc(NC(=O)c2ccc3c(c2)OCO3)c1 | i | -1 | 6 | -4.3 | -16 | 3.7 | 2 | -1.7 | 1 | -12
Cn1cccc1/C=N/NC(=O)C(O)c1ccccc1 (stereo not drawn) | i | 22 | 9 | 0.4 | 3 | nt | -3 | -3.4 | -3 | 1
O=C(NCc1cccc(Cl)c1)c1ccncc1 | i | 6 | 9 | 0.2 | -11 | -4.0 | 8 | 1.0 | 5 | -8
Cc1ccc(C)c(OCc2n[nH]c(=S)o2)c1 | i | 3 | -6 | 2.1 | -14 | -6.4 | 2 | 1.6 | 7 | -5

Full records as entered above:
Cc1cc(OCC(=O)Nn2cnnc2)ccc1Br is listed with FGF22 binding: i; Ecoli rRNA inh: 14; Ecoli rRNA inh OD600: 15; Ecoli rRNA inh RFP: -6.1; T cruzi inh: -15; MLL AF4-AF9 inh: 5.1; Beta cell apopt: -6; RanGTP-Impb inh: 2.7; Calb FLC: -10; ALR H2O2 inh: 47
COc1cccc(NC(=O)c2ccc3c(c2)OCO3)c1 is listed with FGF22 binding: i; Ecoli rRNA inh: -1; Ecoli rRNA inh OD600: 6; Ecoli rRNA inh RFP: -4.3; T cruzi inh: -16; MLL AF4-AF9 inh: 3.7; Beta cell apopt: 2; RanGTP-Impb inh: -1.7; Calb FLC: 1; ALR H2O2 inh: -12

From PubChem
